gsp antag – gsp mutant antagonism | 0.4% of 340,000 active | Potency, µM (doses to about 76.9 µM), for inactives: at the highest dose activity change, negative = inhibition, hits mostly inhibitors | gsp-mutant cells, cAMP HTRF, 30 min; control for the full effect not named in the record; active = falling curve of any shape with a large fitted effect; inconclusive = falling curve, mostly with a smaller effect; inactive = flat or rising curve; cell line not stated here;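 also: intracellular cAMP measured with PDE inhibitor Ro 20-1724 present during compound exposure; potency is read from the fitted curve at half-maximal effect; % is scaled to controls: 0 for no effect and ±100 for the full control effect; nearly all actives have a fitted effect of over 65% in size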
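HTRF cAMP measurement after 30 min RT detection following 30 min, 37C compound treatment alongside […] (added as 300 uM solution) in G418-selected cells seeded at 2000/well and grown 16–24 h.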
D2 potentiator – human D2 receptor positive allosteric modulation | AID 624464 | 0.23% of 360,000 active | DiscoveRx D2 beta-arrestin cells, luminescence, 90 min; 100% = 57 uM dopamine signal | potentiation, % (concentration not given with the values) | P14416; active = potentiation of 50% or more; inconclusive = 30% to 50%; inactive = 30% or less;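 also: compound concentration not given in the record; tested on top of an EC20 dose of dopamine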
Target sequence (P14416 whole entry, looked up): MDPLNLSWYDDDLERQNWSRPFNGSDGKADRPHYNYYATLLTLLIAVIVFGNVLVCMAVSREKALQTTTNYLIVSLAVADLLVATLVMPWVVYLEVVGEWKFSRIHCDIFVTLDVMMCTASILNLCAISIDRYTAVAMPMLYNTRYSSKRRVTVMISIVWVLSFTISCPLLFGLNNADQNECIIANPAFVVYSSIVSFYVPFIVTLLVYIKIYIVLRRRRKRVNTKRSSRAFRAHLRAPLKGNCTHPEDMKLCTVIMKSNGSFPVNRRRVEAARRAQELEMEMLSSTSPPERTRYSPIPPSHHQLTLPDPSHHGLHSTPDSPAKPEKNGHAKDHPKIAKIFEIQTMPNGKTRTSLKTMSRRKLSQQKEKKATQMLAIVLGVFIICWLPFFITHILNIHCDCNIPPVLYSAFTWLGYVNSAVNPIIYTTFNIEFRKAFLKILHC
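D2 cells co-treated with compound plus 50 nM dopamine (EC20) for 90 min at 37 deg C to detect potentiation. Beta-arrestin recruitment was read as enzyme-fragment luminescence after 1 h at ambient temperature. Full response was set by 57 uM dopamine.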
CtBP-E1A blk – inhibitors of CtBP/E1A interaction | AlphaScreen GST-E1A/His-CtBP binding, 1536-well; active compounds read low; control for the full effect not named in the record | activity change, % (test concentration not listed) | 0.49% of 340,000 active | AID 651724; in the data active means activity change below about -65%; inconclusive means about -30% to -65%; inactive means above about -30%; also: % is scaled to controls: 0 for no effect and ±100 for the full control effect
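Protein mix (5X: 125 nM each GST-E1A, His-CtBP) was incubated with pinned compound 2 h at 37 deg C in dark, in 50 mM Tris pH 8.0 buffer with 300 mM NaCl. Glutathione donor and nickel acceptor beads followed; AlphaScreen signal read after 1 h.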
D2 agonist – agonists of human D2 dopamine receptor (beta-arrestin). P14416. 0.084% of 360,000 active. DiscoveRx PathHunter D2 beta-arrestin, luminescence, 90 min; 100% = 57 uM dopamine signal. activation, % (test concentration not listed); in the data active = activation above about 40%; inconclusive = about 15% to 40%; inactive = below about 15%; also: compound concentration not given in the record; the text of the record calls up to 30% inactive
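Agonist mode: compounds alone added to overnight-plated D2 PathHunter cells for 90 min at 37 C, with 57 uM final dopamine (EC100) defining full response. Beta-arrestin recruitment detected by chemiluminescent reagent, read after 1 h at ambient temperature.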
gsp ag – gsp mutant agonism. gsp mutant cells, cAMP HTRF, 30 min; control for the full effect not named in the record. Potency, µM (top dose mostly 76.9 µM), inactives show at the highest dose activation (cAMP increase), most hits filed as activators. 0.13% of 340,000 active; active = well fitted activation curve with a large enough effect; inconclusive = small, poorly fitted or top-dose-only effect, or another doubt; inactive = no such curve, though single readings can be large or run the other way; cell line not stated here;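 also: phosphodiesterase inhibitor Ro 20-1724 added with compounds to block cAMP breakdown; potency is read from the fitted curve at half-maximal effect; nearly all actives have a fitted effect of over 60% in size; about a fifth of the inactives were tested at one dose only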
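Cells in DMEM/10% FBS with G418 were pretreated with compounds in DMSO plus […] (300 uM stock) for 30 min at 37C. cAMP was measured by HTRF (cAMP-d2 plus anti-cAMP antibody-K) after 30 min at room temperature.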
Six1-Eya2 inh – Six1/Eya2 interaction inhibition; Q15475+O00167; AlphaScreen GST-Six1/His-Eya2 binding, biochemical; active compounds read low; control for the full effect not named in the record; activity change, % (test concentration not listed); 0.56% of 360,000 active; in the data active = activity change below about -65%; inconclusive = about -30% to -65%; inactive = above about -30%; also: % is scaled to controls: 0 for no effect and ±100 for the full control effect
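AlphaScreen luminescence read after one hour at 37 °C in darkness. Pin-transferred compounds met GST-Six1 and His-Eya2 protein (5X stock 250 nM/500 nM) plus glutathione donor and Ni-chelate acceptor beads (5X, 50 ug/mL).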
* hit, by the source's call; ? = inconclusive; . = no result given; [ ] = dose if it differs, or a comment. No enrichment for hits; overall some 1.4% were active at least once.

SMILES | gsp antag | D2 potentiator | CtBP-E1A blk | D2 agonist | gsp ag | Six1-Eya2 inh
COC(=O)CSc1nnc(-c2ccoc2C)n1-c1ccc(OC)cc1 | -21% | -20 | -3 | -6.4 | -24% | -5
CC(=O)NC(c1ccc2ccccc2c1)c1ccc2cccnc2c1O (stereo not drawn) | -2% | 0 | -66* | -1.6 | 7% | -89*
COc1ccc(/C=C/C(=O)OCC(=O)NCCNC(=O)COC(=O)/C=C/c2ccc(OC)cc2)cc1 | 5% | -1 | -3 | 4.6 | -1% | 10
Cc1ccccc1OCC(=O)Nc1ccc2c(c1)C(=O)c1ccccc1C2=O | 8% | 0 | -16 | 4.0 | ? | -6
O=C(NCc1ncc(C(F)(F)F)cc1Cl)Nc1ccccc1 | 2% | -6 | -15 | 4.0 | 12%[15.4 µM] | 7
CCOC(=O)C1=C(CN2CCCCCC2)NC(=O)NC1c1cccc([N+](=O)[O-])c1 (stereo not drawn) | -13% | -8 | -24 | 1.5 | 3%[15.4 µM] | -14
COc1ccc(CC(=O)Nc2ccccc2-c2ccccc2)cc1OC | 0% | 7 | 3 | -2.9 | -1%[15.4 µM] | -4
COc1ccc(C2C3=C(N=C4SCC(=O)N42)c2ccccc2CC3)cc1OC (stereo not drawn) | 2% | -15 | -9 | 0.5 | -4% | -14
COc1ccc(Cl)cc1NC(=S)N1CCN(S(C)(=O)=O)CC1 | 4% | -7 | 4 | -1.0 | -21% | 2
COc1ccc(N=C2S/C(=C\c3ccc(C)o3)C(=O)N2CC(C)C)cc1 | 2% | -3 | -7 | -2.7 | -32%[inhibitor] | -12
Cc1ccsc1/C=C/c1ccc2ccccc2n1 | -6% | -21 | 68 | -5.6 | -72% | 54
CN(C)c1ccc(P(=O)(OCc2ccccc2)C(O)c2ccccc2F)cc1 (stereo not drawn) | 6% | -7 | 3 | -3.5 | -3% | 5
COc1ccc(C)cc1N(C(=O)c1snc(C(N)=O)c1N)C(C(=O)NC1CCCC1)c1ccc(F)cc1 (stereo not drawn) | -25% | -7 | 1 | -2.7 | 21%[15.4 µM] | 8
CCCn1cc(SCC(=O)NCc2ccco2)c2ccccc21 | -1% | -19 | -8 | -2.9 | 0% | -14
COc1ccc(NC(=O)c2cccs2)cn1 | 0% | -4 | -1 | -5.2 | 3% | -2
CCOc1cccc2sc(N(CCCN(C)C)C(=O)c3ccc(S(=O)(=O)N4CCc5ccccc5C4)cc3)nc12 | 0% | -18 | -27 | -1.8 | ? | -16
O=C(NC1CCCCC1)C(c1ccccc1)N(C(=O)c1csnn1)C1CCCC1 (stereo not drawn) | -11% | -12 | 0 | -3.3 | 2%[15.4 µM] | -16
O=C(COc1ccc(-c2ccccc2)cc1)N/N=C/c1ccccc1Br | -11% | 1 | 0 | -2.7 | ? | -2
CCN(CC)c1ccc(/C=N/Nc2nc(C)cc(=O)[nH]2)cc1 | -15% | -12 | -14 | 0.1 | 7% | -18
C=CCn1c(SCC(=O)NCc2ccco2)nc2sc(C)c(C)c2c1=O | 2% | -2 | 6 | -1.4 | -6% | 1
COc1ccc(CNC(=O)C(C)N2CCN(S(=O)(=O)c3ccccc3F)CC2)cc1 (stereo not drawn) | 0% | -10 | 7 | -0.9 | -20% | 2
COC(=O)c1ccc(NC(=O)CN2C(=O)CCC2=O)cc1 | 14% | -10 | 4 | -2.6 | -3% | -3
O=[N+]([O-])c1ccccc1S(=O)(=O)N1CCN(C2CCCC2)CC1 | 6% | -36 | 0 | 2.5 | -6% | -1
Cc1cc(C)cc(OCC(=O)NN2Cc3ccccc3C2=N)c1 | -3% | -12 | 23 | -3.3 | -27% | -1
CCCCN1CC(N2CCN(C(=O)c3ccco3)CC2)CS1(=O)=O (stereo not drawn) | . | -8 | -1 | -4.7 | . | 11
COc1cc(NC(=S)NC2CC(C)(C)NC(C)(C)C2)cc(OC)c1 | -12% | 1 | 15 | -1.6 | -9%[15.4 µM] | -18
COc1ccc(CN(C)C(=O)c2[nH]c(C)c(C(C)=O)c2C)cc1F | -3% | -6 | 1 | -2.8 | -4%[15.4 µM] | -1
CCOC(=O)N1CCC(NC(=O)CC2C(=O)NCCN2Cc2cccc(F)c2F)CC1 (stereo not drawn) | 10% | 10 | 1 | 0.6 | -33%[inhibitor] | 2
Cc1sc2nc(CSCC(=O)Nc3c(F)cccc3F)[nH]c(=O)c2c1C | 5% | 7 | 1 | -2.5 | -8% | 0
COC(=O)C1SCC2C(=O)N(Cc3ccc(Cl)cc3)CC(=O)N21 (stereo not drawn) | 6% | 1 | 0 | -4.5 | -7%[15.4 µM] | 2
O=C(N[C@H]1CCCCNC1=O)c1cc(COc2ccc(F)cc2F)on1 | 3% | -6 | . | -0.4 | 18% | 3
CN(Cc1ccccc1)C(=O)Cn1nnc(-c2ccccc2)c1COc1ccc2ccccc2c1 | . | -4 | -12 | -3.1 | . | -6
COC(=O)c1cn(C(=O)c2ccccc2Cl)c2ccccc12 | 12% | -2 | 9 | -0.8 | -13%[15.4 µM] | 12
CCOc1ccc(C(=O)C(C)OC(=O)c2nc(Cl)ccc2Cl)cc1 (stereo not drawn) | -26% | -11 | 0 | -1.7 | -31% | 14
N#Cc1ccc(Oc2ccc(S(=O)(=O)N3CCCCC3)cn2)cc1 | 10% | 1 | -13 | 0.2 | 9% | 11
CCOc1ccc(S(=O)(=O)/N=C(/Nc2ccc(OC)cc2)c2ccccc2)cc1 | 12% | 6 | -6 | 13 | -27%[15.4 µM] | -18
CC(=O)Nc1ccccc1NC(=O)C/C(C)=N/NC(=O)C(=O)N1CCCCC1 | . | -9 | 2 | -1.8 | 18%[15.4 µM] | 1
O=C(Nc1ccccc1)C1Cc2c(-c3ccccc3Oc3ccccc3)ccnc2O1 (stereo not drawn) | . | -15 | -3 | -1.3 | . | -10
CCCc1nc(SCC(=O)c2ccc3c(c2)NC(=O)CO3)[nH]c(=O)c1CC | 0% | 2 | 4 | -1.6 | -10%[15.4 µM] | -6
O=C(COC(=O)Cc1ccccc1[N+](=O)[O-])NCC1CCCCC1 | 0% | -4 | -6 | -5.7 | 15%[15.4 µM] | 18
COc1ccccc1NC(=O)N1CCC(C(=O)c2ccc(F)cc2)CC1 | 1% | -10 | 3 | 0.5 | -15% | 3
Cn1c(=O)[nH]c(=O)c2c1nc(NCc1ccccc1)n2Cc1ccc(F)cc1 | -5% | -6 | 0 | -7.3 | 19% | 7
CN(CCCC(=O)Nc1ccc(Br)cc1F)S(=O)(=O)c1ccccc1 | -3% | 2 | . | -1.0 | -15% | 1
O=C(NC1CCCCC1)N1CCCC(CNS(=O)(=O)Cc2ccccc2)C1 (stereo not drawn) | -22% | -3 | 4 | -4.9 | 10%[15.4 µM] | 3
CC1CCN(C2=NC(=O)/C(=C/c3ccccc3F)S2)CC1 | -11% | -10 | -15 | -0.3 | 22%[15.4 µM] | -17
O=C(Nc1ccc(-c2cn3ccccc3n2)cc1)c1ccc(Cl)cc1 | 5%[15.4 µM] | -12 | -1 | -0.2 | 11% | -3
Cc1[nH]nc2c1/C(=N\O)CCC2 | -8% | -4 | 0 | -7.0 | -22%[15.4 µM] | 7
CCOc1ccc(C(=O)COC(=O)c2nc3nccc(C)n3n2)cc1 | 10% | -18 | -1 | -3.8 | -12% | -4
COC(=O)Cc1csc(NCc2ccccc2)n1 | 3% | -6 | 1 | -2.2 | 12%[15.4 µM] | 5
CC(C)Cc1ccc(C(=O)Nc2ccc(Cc3ccncc3)cc2)o1 | -25% | -8 | -5 | 1.1 | 0% | -5

Compound profiles, from the list above. Order of screens: gsp antag	D2 potentiator	CtBP-E1A blk	D2 agonist	gsp ag	Six1-Eya2 inh
CC1CCN(C2=NC(=O)/C(=C/c3ccccc3F)S2)CC1 is entered as -11%	-10	-15	-0.3	22%[15.4 µM]	-17
Cc1[nH]nc2c1/C(=N\O)CCC2 is entered as -8%	-4	0	-7.0	-22%[15.4 µM]	7
COC(=O)Cc1csc(NCc2ccccc2)n1 is entered as 3%	-6	1	-2.2	12%[15.4 µM]	5
O=C(NC1CCCCC1)N1CCCC(CNS(=O)(=O)Cc2ccccc2)C1 (stereo not drawn) is entered as -22%	-3	4	-4.9	10%[15.4 µM]	3

New compounds follow:
SMILES | gsp antag | D2 potentiator | CtBP-E1A blk | D2 agonist | gsp ag | Six1-Eya2 inh
COc1ccc(C(=O)NN/C(=N/S(=O)(=O)c2ccc(C)cc2)c2ccccc2)cc1 | -16% | -2 | 10 | 2.6 | -16%[15.4 µM] | -3
COc1ccc(S(=O)(=O)N2CCCCCC2)cc1NC(=O)CCCOc1ccccc1 | -17% | -3 | . | -3.9 | -25% | 3
CCc1ccccc1N1C(=O)CN(Cc2cc(OC)c(OC)c(OC)c2)C1=S | -3% | 4 | 5 | 9.9 | 22% | -4
O=C(CN1C(=O)C2C3CCC(C3)C2C1=O)OCC(=O)c1ccc(Br)cc1 (stereo not drawn) | 2% | -35 | -6 | -7.1 | 3% | 0
CCC(=O)N(CCC1(C(C)C)CCOC(C)(C)C1)Cc1ccco1 (stereo not drawn) | -21% | -10 | 4 | -1.9 | -69%[inhibitor] | 1
CN1C=CC(C(C(N)=O)c2ccccc2)c2ccccc21 (stereo not drawn) | . | -7 | 1 | -4.1 | -33%[inhibitor] | 0
NC(=O)c1cc([N+](=O)[O-])ccc1NCC1CCCCC1 | -9% | -6 | -13 | -3.7 | 26% | -14
CN(C)CC(C)(C)CNC(=O)C1CCN(CCCc2ccccc2)CC1 | -3% | 0 | 5 | ? | -13% | 4
Cc1cc(NC(=O)c2cc(-c3cccc(OCC(C)C)c3)nc3ccccc23)no1 | -11% | -12 | 0 | 0.0 | 29% | 0
CCN(C(=O)COC(=O)CC1CCCCC1)c1c(N)n(Cc2ccccc2)c(=O)[nH]c1=O | 12% | -2 | 6 | 3.2 | ? | 2
CC(=O)Oc1ccc2c(c1)O/C(=C\c1ccncc1)C2=O | -6% | -10 | -1 | -1.1 | ? | 5
Cc1ccc(C(=O)N(Cc2ccco2)c2c(N)n(Cc3ccccc3)c(=O)[nH]c2=O)cc1 | . | 5 | 6 | 1.8 | 14% | 1
CCC1CCCCN1CCCNC(=O)c1cc2c(Cl)nc3ccccc3c2s1 (stereo not drawn) | 12% | -3 | -7 | 2.9 | ? | -11
CNC(=O)CSc1nc2sccc2c(=O)n1-c1ccccc1 | 1% | -3 | 0 | -1.6 | 11%[15.4 µM] | 0
CCCOC(=O)Nc1ccc(S(=O)(=O)Nc2ncccn2)cc1 | 2% | -1 | -10 | -1.8 | 1%[15.4 µM] | 8
COC(=O)[C@]1(C)N[C@H](c2ccc(SC3CCCCC3)cc2)[C@@H]2C(=O)N(C)C(=O)[C@@H]21 | 5% | -8 | 5 | 0.4 | -3% | -1
O=C(O)/C=C/C(=O)NCCC1=CCCCC1 | 7% | 0 | . | -3.1 | -57%[inhibitor] | -5
CCCOc1ncnc2c1[nH]c1ccc(OC)cc12 | -6% | -16 | . | -4.8 | 37% | 0
